Tgondii IFNg: inhibitors of Toxoplasma gondii growth with IFN-gamma | activity change, negative = inhibition, %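 (about 20 µM by stock and volumes)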 | Toxoplasma gondii growth in IFN-gamma-treated host cells; stronger effect = lower value; reference of the scale not given here | 69,000 compounds, 3.8% hits;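 active = below -70%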;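 also: host cells are HeLa cells infected with Toxoplasma gondii; parasite growth read as luciferase light; one replicate is shown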
Active calls of the source: *; i = inactive. The list is partial; rates above refer to the full screens.

SMILES	Tgondii IFNg
O=C(NCC1CC1)[C@H]1[C@H](CO)[C@H]2Cn3c(ccc(C4=CCCC4)c3=O)[C@H]2N1C(=O)C1CC1	-1
Cc1ccc(S(=O)(=O)NCC[C@H]2CC[C@H](NC(=O)c3cccnc3)[C@@H](CO)O2)cc1	-21
COc1cc2c(cc1O)CCN(C(=O)c1ccco1)C2C (stereo not given)	-1
C#CCNS(=O)(=O)c1cc(OCC(F)(F)F)ccc1OCC(F)(F)F	-2
c1cnc(N2CCC3(CC2)CC(N2CCOCC2)CO3)nc1 (stereo not given)	-2
Cc1ccc(=O)n(CC(=O)N2CCC(C(=O)NCCc3ccc(Cl)cc3)C2)n1 (stereo not given)	-7
Cc1cc2c(cc1C(=O)N1CCOC(c3ccc(Cl)cc3)C1)OCCO2 (stereo not given)	-55
COCCN(C[C@@H]1[C@@H](c2ccccc2)[C@@H](CO)N1C(C)=O)C(=O)c1cccnc1	-47
Nc1cc(-c2ccc(C3(O)CCNCC3)cc2)c2cc[nH]c2n1	76
O=C(O)c1ccccc1CN1CCCC(Cn2ccnc2)C1 (stereo not given)	1
Cc1ccc(OCCSc2ncccn2)c(C)c1	290
COCc1nc(CN2CC(c3cccnc3)C2)no1	5
CC(C)(C)c1ccc(COc2ncnc3cc(Cl)ccc23)cc1	-18
COCCN1C(=O)CCc2cc(NC(=O)c3ccc(Cl)s3)ccc21	-78*
CCOc1ccc(-c2nc(Cn3nnc(C(=O)Nc4ccc(OC)c(OC)c4)c3C)c(C)o2)cc1	38
O=C(OCc1ccc(Cl)cc1Cl)c1ccc2ccccc2n1	45
Cc1ccsc1CN(Cc1nc(-c2ccco2)no1)C1CC1	-22
COC(C)c1cccc(-c2nc(C(F)(F)F)nc(C)c2C)c1 (stereo not given)	-22
Cc1ncc(-c2ccncc2)c(CN(C)S(=O)(=O)c2ccc3c(c2)CCC(=O)N3)n1	12
O=C(COc1ccc(Br)cc1)Nc1cncc(-c2nc3ccccc3o2)c1	0
CCC(=O)N1CC2(C1)[C@@H](c1ccc(-c3cccc(C)c3)cc1)[C@H](CO)N2S(C)(=O)=O	-23
CN1C(=O)c2cc(NC(=O)c3cnccn3)ccc2OC[C@H]2O[C@@H](CC(=O)N[C@H]3CCN(Cc4ccccc4)C3)CC[C@@H]21	-19
CCC(=O)NCC(=O)OCC(=O)c1ccccc1	5
FC(F)(F)Oc1cccc(Cn2cnnc2)c1	2
CC(C)c1nc(-c2cc(C(=O)N3CCCC3)c3ccccn23)cs1	-49
CC(C)n1c(=O)oc2cc(S(=O)(=O)N3CCN(c4ccccn4)CC3)ccc21	97
Cc1cc(O)c(C(C)C)cc1C1(c2cc(C(C)C)c(O)cc2C)OC(=O)c2ccccc21	-65
Cc1ccsc1CN(C)Cc1ccc(C(=O)Nc2cnn(C)c2)cc1	-84*
O=c1[nH]ccc2c(O)cccc12	11
O=C(O)CNS(=O)(=O)c1cccc2cccnc12	16

An excerpt of these results, with each value named.
Cc1ccsc1CN(C)Cc1ccc(C(=O)Nc2cnn(C)c2)cc1
  Tgondii IFNg = -84*
Cc1ccsc1CN(Cc1nc(-c2ccco2)no1)C1CC1
  Tgondii IFNg = -22
CC(C)c1nc(-c2cc(C(=O)N3CCCC3)c3ccccn23)cs1
  Tgondii IFNg = -49

The list goes on.
SMILES	Tgondii IFNg
C/C=C/c1ccc([C@@H]2[C@@H](C#N)N(c3nc(CC)cs3)[C@H]2CO)cc1	-5
CC(C)(C)NS(=O)(=O)c1ccc(CCC(=O)N2CCc3ccccc3C2)cc1	-4
CC(=O)[C@H]1CC[C@H]2[C@@H]3CCC4=CC(=O)CC[C@]4(C)[C@H]3[C@H](O)C[C@]12C	-6
Cc1nn(CC(=O)NCCCN2CCOCC2)c(=O)c2nc(-c3ccccc3)sc12	-11
CCOc1ccc(-c2ccccc2NC(=O)COC)cc1	28
c1cc(-n2ccnc2)cc(-n2cnnc2)c1	35
CCS(=O)(=O)N1CCCn2c(nc(Cn3cncn3)cc2=O)C1	2
CCCNC(=O)C[C@@H]1CC[C@H]2[C@@H](COC[C@@H](O)CN2Cc2ccncc2)O1	-45
Nc1ccc(OCc2ccccc2Cl)cc1	19
O=S(=O)(c1ccc(F)cc1)N1CCn2nnc(COc3cccnc3)c2C1	-7
CCc1ccccc1NC(=O)NCC(c1cccnc1)c1cn(C)c2ccccc12 (stereo not given)	-62
CCC(=O)N1CCC2C(C[C@@H](CN3CCCC3)N2c2nccs2)C1 (stereo not given in full)	2
Cc1ccccc1-c1ccc([C@H]2[C@@H](CO)N3C(=O)CN(C(=O)c4ccncc4)C[C@@H]23)cc1	-14
CO[C@H]1CN(C)C(=O)c2cc(NS(=O)(=O)c3cccc(Cl)c3)ccc2OC[C@H](C)NC[C@@H]1C	-50
COc1ccccc1OCCn1cccc1CN1CC2C[C@@H](O)CN2C[C@@H]1C (stereo not given in full)	25
Cc1cc(C)n(-c2ccc(Cl)c(C(=O)Nc3cccc(Cn4cncn4)c3)c2)n1	-1
NC(=O)N1CCC2O[C@H](COCC(=O)N3CCCC3)CCC21 (stereo not given in full)	-2
CCN(CC)C(=O)c1cc(=O)n(CC(=O)Nc2ccc(Br)cc2)c2ccccc12	5
CC(=O)Nc1ccc(S(=O)(=O)NCc2nc(-c3ccc(C)cc3)oc2C)cc1	38
CCOC(=O)N1CCC(N2[C@@H]3CC[C@H]2CNC(=O)C3)CC1	-6
CNC[C@H]1OCCCC[C@H](C)Oc2ccc(NC(=O)Nc3ccc(OC)cc3)cc2C(=O)N([C@@H](C)CO)C[C@@H]1C	16
COCC1CN(CC2CCOCC2)Cc2cn(C)nc21 (stereo not given)	-61
CC(C)(C)c1nnc2sc(-c3cccs3)nn12	22
Cc1nc(NCc2ccco2)nc2c1COCC21CCN(S(C)(=O)=O)C1 (stereo not given)	66
CCOCC12CCCOC1CCN(C(=O)CC1C=CCC1)C2 (stereo not given)	-2
c1nc(N2CCOCC2)cc(N2CCC3(CCOCC3)CC2)n1	-2
O=C(c1ccn[nH]1)N1CC[C@H]2CN(Cc3ccccc3)S(=O)(=O)[C@@H]2CC1	1
CCOc1cc(CCC(=O)N2CCc3[nH]c4c(Cl)cccc4c3C2)on1	40
COc1ccc2[nH]c(C(=O)N(C)C3CCN(C)CC3)cc2c1	22
Cc1ccc(Nc2nc(C(=O)NCc3ccc(C)o3)nc3ccccc23)cc1	-13

Structures shown so far that contain bromine:
SMILES	Tgondii IFNg
O=C(COc1ccc(Br)cc1)Nc1cncc(-c2nc3ccccc3o2)c1	0
CCN(CC)C(=O)c1cc(=O)n(CC(=O)Nc2ccc(Br)cc2)c2ccccc12	5

Other compounds follow.
SMILES	Tgondii IFNg
Cc1c(C(=O)NC(C)Cc2cn(C)c3ccc(F)cc23)cccc1N1CCOCC1 (stereo not given)	7
Cc1ccc(C(=O)N2CCCC2c2nonc2C)cc1NC(=O)C1CC1 (stereo not given)	-8
COc1ccc(CCC(=O)N2CCc3c([nH]c4ccccc34)C2c2ccc(F)cc2)cc1 (stereo not given)	5
C[C@@H]1CN([C@H](C)CO)C(=O)CCCn2nncc2CO[C@H]1CN(C)Cc1cccc2c1OCCCO2	-88*
CC(=O)Nc1ccc(CN2CCCN(C(=O)C3CCC3)CC2)cc1	5
Cc1cc(-c2nnc(-c3ccc(C(F)(F)F)cn3)o2)no1	43
CCc1ccc(CN2CCC3(CC2)C(=O)N(Cc2ccc4ccccc4c2)C(=O)N3CCCOC)o1	-47
Cc1ccc(C(=O)Oc2ccc(C)cc2-n2nc3ccccc3n2)cc1	316
CN(C)C(=O)COCC1CN(CC2CC2)Cc2nnn(C)c21 (stereo not given)	-5
CCOCc1cc(C2NCCc3[nH]cnc32)ccc1OC (stereo not given)	-3
COc1ccc(-c2nc(C)c(CCNC(=O)c3ccccc3)s2)cc1	i
CCOc1ccc(-c2nc3c(s2)CN(C(=O)Nc2cc(C)ccc2OC)CC3)cc1	-104*
COc1ccc(CCNS(=O)(=O)c2cc3c4c(c2)c(C)cc(=O)n4CCC3)cc1OC	13
CCOc1cc(-c2nccn2-c2ccc(NC(C)=O)cc2)ccc1O	11
O=C(N[C@@H]1CN(c2ncccn2)[C@H]2COC[C@@H]12)c1cscn1	-31
C=CCn1c(SCC(=O)OCC)nc2sc3c(c2c1=O)CCc1ccccc1-3	33
CO[C@@H]1CO[C@@]2(CCCN(C(=O)CC3=CCCCC3)C2)C1	79
COCc1cc(CN2CC3(CCNCC3)CC2C(=O)O)ccc1OC (stereo not given)	-7
COc1ccc(Cc2nc3ccccc3n2CCCOc2ccccc2OC)cc1OC	-97*
Cc1ccc2sc(C3=NN(C)C(O)(C(F)(F)F)C3)c(C)c2c1 (stereo not given)	222
COc1ccc(CN2C(=O)N(C)C3(CCN(Cc4cccn4-c4ccccn4)CC3)C2=O)cc1	5
O=c1c(N=Nc2ccccc2)c(-c2ccccc2)[nH]n1-c1ccccc1	11
Cc1cnc(CCNC(=O)CC2CCN(S(=O)(=O)c3cccc(F)c3)CC2)s1	21
CCCCN(CC)c1nc(C(=O)OCC)nc2ccccc12	-87*
O=C(NCCc1csc(-c2ccc(Cl)cc2)n1)c1ccccc1F	-29
c1ccc(C(c2ccccc2)c2nc(CSc3nnnn3-c3ccccc3)no2)cc1	-21
CCOCCCNCc1cn(-c2ccc(F)cc2F)nc1-c1ccccc1C	2
O=C(O)CN1CCC2(CC(=O)N(c3ccccc3)C2)C1 (stereo not given)	-3
CO[C@@H]1CN(C)C(=O)c2cc(NC(C)=O)ccc2OC[C@@H](C)N(C(=O)Cc2ccccn2)C[C@@H]1C	-35
COc1ccc(C(=O)N2CCC3(CC2)NC(=O)c2ccc(F)cc2N3C)cc1OC	60
CCS(=O)(=O)N1CCC2(CC1)OC(=O)C(C)=C2C(=O)NCc1ccc2c(c1)OCO2	6
CCN(C(=O)c1cc2cccnc2n(Cc2ccc(F)cc2)c1=O)C1CCCCC1	-28
COCC(=O)Nc1ccccc1-c1cccc(NC(C)=O)c1	3
CC(=O)N1[C@H](CO)[C@@H](c2ccccc2)C12CN(S(=O)(=O)c1ccccc1)C2	-1
CCCn1nc(C(=O)O)c2c1CCC(N(C)Cc1nncn1C(C)C)C2 (stereo not given)	-1
CC1CCN(c2ncc(CNc3ccc(OCC(=O)N4CCCCC4)cc3)cn2)CC1	-26
CC(C)(C)C(=O)Nc1c(Cl)cccc1OC(F)(F)F	48
FC(F)(F)c1ccnc(NCc2ccc3c(c2)OCO3)n1	51
COc1ccc(N2C(=O)CN(C(=O)c3cccc(Cn4nc(C)cc4C)c3)CC23CCCC3)cc1	-49
O=S(=O)(c1cccc(Cl)c1)N1CCC2(CC1)Nc1ccccc1-n1cccc12	45
Cc1cccc(C(=O)Nc2c(C(=O)N3CCN(c4ccccn4)CC3)[nH]c3ccc(C)cc23)c1	2
CN(C)C(C(=O)N1CCc2c(nc[nH]c2=O)C1)c1ccc2c(c1)OCO2 (stereo not given)	-2
C[C@H]1CN([C@@H](C)CO)C(=O)c2c(c3ccccc3n2C)-c2ccccc2CO[C@H]1CN(C)Cc1cccc(C(F)(F)F)c1	-58
COCc1nc2cc(NC(=O)Cc3ccccc3)cc(C(=O)N(C)CC3CCCCO3)c2n1C (stereo not given)	-3
COC(=O)c1ccc(NC(=O)Cn2c(=O)cc(-c3nc(C(C)C)no3)c3ccccc32)cc1	-26
Cc1cnc(N2CCCC(OCc3cccnc3)C2)nc1N(C)C (stereo not given)	5
CC(=O)N1C2CN(Cc3ccc(C)o3)CC2C[C@@H]1C(=O)NCC1CC1 (stereo not given in full)	-22
CCOc1cc(C)nc(N2CCC(C(=O)NCC3CCCO3)CC2)n1 (stereo not given)	2
CCOc1ccc(C2c3[nH]c4ccccc4c3CCN2C(=O)c2ccc(OC)cc2)cc1 (stereo not given)	-76
O=c1[nH]c2ccccc2c(=O)n1CCCN1CCN(c2ccccc2)CC1	-2
O=C(c1ccoc1)N1C[C@@H]2OCCN(CCN3CCCC3)[C@H]2C1	-35
CC1=C(C(=O)N2CCN(c3cccc(Cl)c3)CC2)C2(CCN(S(C)(=O)=O)CC2)OC1=O	50
Cc1ccccc1NC(=O)N1CC[C@@H]2Oc3ccccc3S(=O)(=O)N(C)[C@@H]2CC1	-3
COc1ccc(CCC(=O)N2CCC3(CC2)Nc2ccc(C)c(C)c2-n2cccc23)cc1	25
CCSc1nc(-c2ccccc2)cc(=O)[nH]1	50
COCCN1CCCC12CCN(C(=O)C1CCCC1)CC2	-8
NC(=O)N1CCO[C@]2(CCC[C@@H]2COCc2ccccn2)C1	1
COc1ccc2c(c1)NC1(CCN(C(=O)Cc3cccs3)CC1)c1cccn1-2	10
Cn1cc(CNC2CC3(CCN(CCO)CC3)Oc3ccccc32)cn1 (stereo not given)	-3
O=C(NCc1ccccc1)c1ccc2snnc2c1	-2

Additional entries
SMILES	Tgondii IFNg
COc1ccc(Cl)cc1NC(=O)N1CCC2(CC1)Nc1cc(C)ccc1-n1cccc12	405
CCc1ccc(CNCCNC(=O)c2nonc2N)cc1	-50
O=C(N[C@H]1CC[C@H](CCn2cc(-c3ccccc3F)nn2)O[C@@H]1CO)c1ccc2c(c1)OCO2	-11
Cc1cccc(-c2noc(C(C)NC(=O)c3cnc4sc(C)cn4c3=O)n2)c1 (stereo not given)	0
Cc1c(Cl)cccc1S(=O)(=O)NCCc1nnc(SCc2ccccc2)n1C	-54
CCN1c2cc(C)ccc2-n2cccc2C12CCN(C(=O)c1cc(OC)c(OC)c(OC)c1)CC2	-10
Cc1cccc(S(=O)(=O)N2CCC3(CCC(C(=O)Nc4cccnc4)O3)CC2)c1 (stereo not given)	36

An excerpt of these results, field by field:
smiles: O=C(O)CNS(=O)(=O)c1cccc2cccnc12
  Tgondii IFNg: 16

smiles: C/C=C/c1ccc([C@@H]2[C@@H](C#N)N(c3nc(CC)cs3)[C@H]2CO)cc1
  Tgondii IFNg: -5

smiles: CC(C)(C)NS(=O)(=O)c1ccc(CCC(=O)N2CCc3ccccc3C2)cc1
  Tgondii IFNg: -4

smiles: CC(=O)[C@H]1CC[C@H]2[C@@H]3CCC4=CC(=O)CC[C@]4(C)[C@H]3[C@H](O)C[C@]12C
  Tgondii IFNg: -6

Source: PubChem (Broad Institute)
